# Rango release inh: prevents RanGTP from dissociating the Rango-importin beta complex; Potency, µM (highest dose often 46.1 µM), without a hit: at the top dose activity change, negative = inhibition; Biochemical FRET Rango-importin beta, RanGTP-induced dissociation; 340,000 compounds, 0.071% hits; O95149+P62826; active means falling FRET ratio curve, often poorly fitted, with flat reads before Ran was added; inconclusive means other falling curves, or compound fluorescence or quenching; inactive means flat or rising ratio curve;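 further: potency means the concentration at half of the fitted maximal effect; % of control where 0% means no effect; nearly all actives have a fitted effect of over 45% in size; -100% = wells without RanGTP and RCC1; the record marks most hits as doubtful in a second field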
#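 FRET read at 45 min, room temperature: inhibitors block the CFP/YFP signal rise when RanGTP (0.6 uM Ran, 2 mM GTP, 0.2 uM RCC1) frees Rango (0.1 uM) from importin beta (0.25 uM). Pre-read after 5 min compound exposure flags interference.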
# GLA inh pH 4.5: blocks human alpha-galactosidase A at pH 4.5; P06280; purified enzyme, 4-MU-alpha-Gal fluorescence, pH 4.5; activity change, negative = inhibition, % at 105 µM; 230,000 tested, under 10 active; AID 1467; inconclusive = small, poorly fitted or top-dose-only inhibition, or a rising curve; inactive = flat fitted curve, though single readings scatter; no compound was filed as active;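 further: 0% = full activity with enzyme and -100% = basal without enzyme; dose as in the result columns while the protocol names 77 µM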
# Target sequence (P06280 whole entry, looked up): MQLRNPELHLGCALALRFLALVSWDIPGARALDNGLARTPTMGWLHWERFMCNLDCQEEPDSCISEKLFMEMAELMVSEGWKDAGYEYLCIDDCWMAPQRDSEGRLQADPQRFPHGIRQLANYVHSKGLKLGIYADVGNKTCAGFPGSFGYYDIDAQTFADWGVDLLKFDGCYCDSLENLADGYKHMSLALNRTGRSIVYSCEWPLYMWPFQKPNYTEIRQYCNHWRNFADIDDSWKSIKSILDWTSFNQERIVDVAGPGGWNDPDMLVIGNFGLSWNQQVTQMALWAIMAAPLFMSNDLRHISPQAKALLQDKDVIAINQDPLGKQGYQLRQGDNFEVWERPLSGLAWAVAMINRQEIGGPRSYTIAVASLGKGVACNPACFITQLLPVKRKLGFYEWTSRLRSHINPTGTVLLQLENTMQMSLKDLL
# miR-21 reporter: raises the signal of a miR-21 reporter; Potency, µM (series often up to 38.3 µM), without a hit: top-dose reporter change, positive = more light; 340,000 tested, under 10 active; HeLa miR-21 FLuc reporter, luciferase, 48 h; AID 2288; active = well fitted rising curve with a large enough effect; inconclusive = small, poorly fitted or top-dose-only effect; inactive = no such curve, though single readings can be large or run the other way;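 further: % of control where 0% means no effect; miR-21 action dims this reporter so a rising signal means less miR-21 action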
#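 Luminescence from a firefly luciferase reporter carrying a miR-21 binding site downstream, stably expressed under a CMV promoter in HeLa cells that make miR-21 endogenously, reports miRNA modulation after 48 h compound exposure up to approximately 40uM final.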
# Rango-impB inh: inhibitors of Rango-importin beta complex formation; Potency, µM (series often up to 92.2 µM), for the others: at the highest dose inhibition of complex formation; Q14974; Rango CFP/YFP FRET sensor + importin beta, 45 min; 340,000 compounds, 0.031% hits; active = rising FRET ratio curve, often small or poorly fitted; inconclusive = mostly compound fluorescence or quenching in the first reads; inactive = flat curves in all reads;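 further: potency means the concentration at half of the fitted maximal effect; 0% = DMSO wells and 100% = buffer wells lacking importin beta; nearly all actives have a fitted effect of over 15% in size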
#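 FRET biosensor Rango (snurportin 1 IBB between N-terminal EYFP and C-terminal Cerulean), 50 nM in PBS/1 mM DTT/0.02% Tween-20/0.1% BSA, preincubated 5 min RT with compound; 0.125 microM importin beta added, 45 min RT, CFP/YFP FRET ratio read.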
# The depositor's hits bear a star; ? = inconclusive; / = no result given.
SMILES,Rango release inh,GLA inh pH 4.5,miR-21 reporter,Rango-impB inh
Cc1c(Br)c(C(F)(F)F)nn1CC(=O)NCCN1CCOCC1,4%,-17,7%,-2.9%
Cc1ccc(S(=O)(=O)N(C)C2(C)CCS(=O)(=O)C2)cc1 (configuration not stated),6%,-1,5%,0.2%
COc1ccc(N2Cc3cccc(C(=O)N4CCOCC4)c3C2=O)cc1,22%,-2,-11%,1.5%
FC(F)(F)c1ccc(Cl)c(NC2=NCCCCC2)c1,-1%,/,1%,3.9%
c1ccc(Cn2nnnc2CN2CCOCC2)cc1,-8%,2,1%,3.1%
CCCOc1ccc(C(=O)NNC(=S)NC(=O)c2cccs2)cc1,2%,/,29%,2.7%
COc1ccc([C@H]2CC(=O)C=C(c3cccc(C#N)c3)C2)cc1,-5%,/,/,-1.6%
COc1cc(C(=O)OCC(=O)Nc2c(F)c(F)c(F)c(F)c2F)cc(OC)c1OC,0%,-6,-1%,-0.4%
O=C(NC1CCCC1)C(NS(=O)(=O)c1cccc2nsnc12)c1ccccc1 (configuration not stated),-11%,-2,-3%,2.0%
CC(=O)c1c(C)[nH]c(C(=O)NCc2cccs2)c1C,-5%,2,-8%,-3.9%
COc1cccc(CNC(=O)CN2C(=O)NC(c3ccccc3)(c3ccccc3)C2=O)c1,10%,/,/,2.9%
Cc1cc(Cl)c(S(N)(=O)=O)cc1OCC(N)=O,6%,0,-2%,-0.2%
Clc1ccc(-c2csc(N3CCC(c4ccccc4)C3)n2)cc1 (configuration not stated),0%,-4,-36%,0.3%
Cc1cccc(CCN(C(=O)Cc2cccs2)C(C(=O)NC2CCCCC2)c2cccnc2)c1 (configuration not stated),-9%,-4,-4%,0.1%
O=C(O)c1cccnc1SCc1ccccc1Cl,?,0,3%,0.4%
Cc1cccc(NC(=O)CSc2nnc(C)c(=O)n2N)c1,-12%,11,4%,2.8%
COc1ccccc1-c1ccc(SCc2ccccc2F)nn1,10%,5,-54%,-0.4%
Cn1c(=O)c(-c2cccc(Cl)c2)c(O)c2ccccc21,-7%,/,/,3.2%
CSC1=N/C(=C\c2ccccc2C)C(=O)S1,13%,8,-4%,-1.5%
CN(Cc1c(F)cccc1Cl)C(=O)c1cccc(S(=O)(=O)N2CCN(Cc3ccccc3)CC2)c1,1%,/,/,-3.2%

# Three entries from above, arranged by the value under miR-21 reporter, lowest first:
SMILES,Rango release inh,GLA inh pH 4.5,miR-21 reporter,Rango-impB inh
COc1ccc(N2Cc3cccc(C(=O)N4CCOCC4)c3C2=O)cc1,22%,-2,-11%,1.5%
CSC1=N/C(=C\c2ccccc2C)C(=O)S1,13%,8,-4%,-1.5%
Cc1cccc(NC(=O)CSc2nnc(C)c(=O)n2N)c1,-12%,11,4%,2.8%

# Returning to the listing, starting three compounds before the break.
SMILES,Rango release inh,GLA inh pH 4.5,miR-21 reporter,Rango-impB inh
Cn1c(=O)c(-c2cccc(Cl)c2)c(O)c2ccccc21,-7%,/,/,3.2%
CSC1=N/C(=C\c2ccccc2C)C(=O)S1,13%,8,-4%,-1.5%
CN(Cc1c(F)cccc1Cl)C(=O)c1cccc(S(=O)(=O)N2CCN(Cc3ccccc3)CC2)c1,1%,/,/,-3.2%
CCN(c1ccccc1)S(=O)(=O)c1cccc(C(=O)Nc2ccc(C)cn2)c1,4%,/,3%,-1.9%
O=C1N/C(=C/c2ccc(N3CCOCC3)cc2)C(=O)N1Cc1ccc(F)cc1,?,4,-10%,?
Cn1c2c(c(=O)n(C)c1=O)CN(CC1CCCO1)CN2 (configuration not stated),1%,-2,-1%,-1.4%
COCCNC(=O)CN(c1cc(C(F)(F)F)ccc1Cl)S(C)(=O)=O,-11%,3,0%,-2.1%
Cc1ccc(Sc2ncccc2[N+](=O)[O-])cc1,-13%,/,-1%,-4.9%
COc1ccccc1C(=O)COC(=O)C1CCN(S(=O)(=O)c2ccc(C)c(C)c2)CC1,-10%,/,/,-2.5%
Cc1ccc(C(CC(=O)N2CCNCC2)c2ccccc2)c(O)c1C (configuration not stated),7%,/,1%,-2.3%
COc1cc(NC(=O)c2ccc([N+](=O)[O-])cc2)ccc1NC(=O)C(C)C,2%,5,-8%,0.0%
[O-]C1=N/[N+](=C/c2ccc(Cl)c(Cl)c2)CC1,-7%,-1,2%,11%
C[C@H](NC(=O)[C@H]1N2C(=O)c3ccccc3C2SC1(C)C)C(=O)NCC1CCCO1 (some centres not stated),2%,/,2%,-0.9%
CN(C)CCCNCC(=O)Nc1ccccc1N1CCOCC1,-2%,2,-6%,4.3%
CCOc1ccc(CN2CCC(=O)NC2=O)cc1,2%,4,-4%,2.3%
Cc1[nH]nc2c1C(Cc1ccccc1)C(C#N)=C(N)O2 (configuration not stated),-18%,2,-7%,-6.5%
CN(CCN(C)C(C)(C)C)C(=O)C(c1ccccc1)c1ccccc1,-11%,-3,-3%,-1.5%
CC[C@@H]1C=C(C(=O)O)[C@H](c2ccc(F)cc2)N1S(=O)(=O)c1ccc(C)cc1,11%,/,/,1.3%
CCCCN(CC)S(=O)(=O)c1ccc(C(=O)Nc2nnc(-c3ccccc3Cl)o2)cc1,/,-9,0%,/
c1coc(Cn2nnnc2CN2CCN(C3CCCCC3)CC2)c1,-2%,-3,1%,0.0%
O=C(NCCN1C(=O)S/C(=C\c2ccc(F)cc2)C1=O)c1cccc(S(=O)(=O)N2CCOCC2)c1,2%,-5,-38%,-0.6%
O=C(NCc1ccccn1)Nc1ccccc1F,-10%,/,-21%,5.3%
O=C(c1ccc([N+](=O)[O-])cc1)N1CCc2ccccc21,3%,/,/,-1.0%

# One compound at a time (already shown):
# CCN(c1ccccc1)S(=O)(=O)c1cccc(C(=O)Nc2ccc(C)cn2)c1 across the screens: Rango release inh = 4%; GLA inh pH 4.5 = /; miR-21 reporter = 3%; Rango-impB inh = -1.9%
# c1coc(Cn2nnnc2CN2CCN(C3CCCCC3)CC2)c1 across the screens: Rango release inh = -2%; GLA inh pH 4.5 = -3; miR-21 reporter = 1%; Rango-impB inh = 0.0%
# CN(CCN(C)C(C)(C)C)C(=O)C(c1ccccc1)c1ccccc1 across the screens: Rango release inh = -11%; GLA inh pH 4.5 = -3; miR-21 reporter = -3%; Rango-impB inh = -1.5%

# Later entries
SMILES,Rango release inh,GLA inh pH 4.5,miR-21 reporter,Rango-impB inh
FC(F)(F)c1nc(-c2cccnc2)ncc1-c1nnnn1-c1ccccc1,-10%,-6,18%,0.9%
CCc1nnc(SCC(=O)N2CCCc3ccccc32)nc1CC,0%,-2,-8%,-1.5%
COc1c(Cl)cc(-c2noc(C)c2C(=O)NCc2ccccc2)cc1Cl,5%,-2,-5%,4.8%
COc1ccc(C(=O)Oc2ccc(/C=N/NC(=O)Cc3ccc([N+](=O)[O-])cc3)cc2)cc1,2%,0,-4%,0.5%
CN(C)CCn1c(=S)[nH]c2ncccc2c1=O,-4%,5,0%,-9.3%
COc1cccc(C(=O)n2c(SC)nc3cc4c(cc32)OCCO4)c1,-1%,0,-19%,-0.5%
Cc1cc2c3c(c1C)C(=O)C(=O)N3C(C)(C)CC2C (configuration not stated),6%,2,-9%,?
CCCSc1nc2c(c(=O)[nH]c(=O)n2C)n1C,1%,4,-10%,3.9%
O=C(CC1C(=O)NCCN1CCCc1ccccc1)NCCc1ccccc1Cl (configuration not stated),17%,/,1%,-4.1%
Cc1cc(=O)oc2cc(OCC(=O)NCCCN3CCCC3=O)c(Cl)cc12,1%,/,-12%,-1.3%
CCCCn1c(N)c(N(CCC(C)C)C(=O)COC(=O)c2cccnc2SC)c(=O)[nH]c1=O,-23%,/,/,-2.0%
CCn1nc(C(C)C)cc1C(=O)N1CCCC(CO)(Cc2ccc(F)cc2F)C1 (configuration not stated),-10%,/,10%,-0.9%
Cc1noc(C)c1S(=O)(=O)N1CCC(C(=O)NCCC2=CCCCC2)CC1,-1%,0,2%,-0.7%
Cc1cccnc1NC(=O)CNC(=O)C12CC3CC(CC(Cl)(C3)C1)C2,0%,/,/,-1.0%
COc1ccc(OC)c(NC(=O)C2CCC(CNc3c(N4CCC(C)CC4)c(=O)c3=O)CC2)c1 (configuration not stated),-7%,-5,-2%,-1.4%
COCCn1nnnc1C(c1ccc(OC)cc1OC)N1CCN(c2ccccc2F)CC1 (configuration not stated),7%,0,-11%,3.0%
Cc1cc(C)c(C(=O)COC(=O)CCn2c(C)csc2=O)cc1C,-15%,/,/,-3.9%
CCCCOCCCNC(=O)N[C@H](C(=O)OC)C(C)C,-2%,-2,-2%,0.6%
Cn1c(=O)c2c(nc(SC3C(=O)CC(C)(C)CC3=O)n2C)n(C)c1=O,-10%,2,2%,0.5%
COc1ccc(-c2nnc(SCC(=O)c3[nH]c(C)c(C(C)=O)c3C)o2)cc1,7%,5,-2%,-0.4%
CC(c1ccccc1)C1CC(=O)N(C2CCCCC2)C1=O (configuration not stated),0%,-2,-2%,-0.4%
C=CCOc1ccc(-c2nc3c(c(=O)[nH]c(=O)n3Cc3ccccc3)n2CCCOC)cc1,14%,/,-2%,0.3%
CCOc1ccc2[nH]c(C)cc(=O)c2c1,-19%,11,3%,-3.4%
Cc1cc(=O)oc2cc(OCC(=O)Nc3nnc(C(C)C)s3)ccc12,-4%,7,-2%,?
CC(=O)c1ccc(S(=O)(=O)NC2CC(=O)N(c3ccc(C)c(C)c3)C2)cc1 (configuration not stated),37%,/,/,2.5%
C=CCN1C2=NCCCN2c2ccccc21,-5%,4,-2%,-4.6%
CCOC(=O)c1[nH]c2cc(OC)c(OC)cc2c1NC(=O)c1nonc1C,19%,0,0%,?
O=C(COC(=O)c1ccc(Br)o1)NCc1ccccc1Cl,-9%,/,/,1.1%
CCOC(=O)/C(=C\c1cn(C)c2ccccc12)[N+](=O)[O-],-5%,9,-2%,5.0%
COc1ccc(-c2cn(Cc3ccc([N+](=O)[O-])cc3)nn2)cc1,-12%,/,-15%,3.9%
O=S(=O)(Nc1cc(Cl)ccc1-n1cncn1)c1cc(Br)ccc1Br,-19%,/,/,-3.1%
O=C(CN(Cc1cccs1)C(=O)CNS(=O)(=O)c1ccc(F)cc1)NCC1CCCO1 (configuration not stated),-3%,1,0%,-0.3%
CCOc1cc(NC(=O)C2CC2)c(OCC)cc1NC(=O)c1ccccn1,-6%,2,-1%,-0.3%
NS(=O)(=O)c1cccc(NC(=O)COC(=O)CSCc2ccccc2)c1,-2%,/,/,1.8%
Cc1ccccc1S(=O)(=O)Nc1nc2ccccc2nc1Cl,14%,0,2%,-0.4%
COc1ccc(NC(=O)C(Sc2nnc3ccccn23)c2ccccc2)cc1Cl (configuration not stated),-18%,1,-14%,0.7%
S=C(NCc1cccs1)Nc1cc(Cl)cc(Cl)c1,5%,-7,?,6.3%
O=C(c1ccc(OC2CCN(CCc3ccccc3)CC2)cc1)N1CCC[C@H]1CO,24%,/,-3%,-1.5%

# A portion of the library; count on the stated rates, not on these rows.
